Screening results from PubChem BioAssay.
Rango complex inh = prevents formation of the Rango-importin beta complex; Potency, µM (highest dose often 92.2 µM), without a hit: top-dose inhibition of complex formation; actives 0.031% (n = 340,000); Q14974; Rango CFP/YFP FRET sensor + importin beta, 45 min; AID 540263; active = rising FRET ratio curve, often small or poorly fitted; inconclusive = mostly compound fluorescence or quenching in the first reads; inactive = flat curves in all reads;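 note: potency is the fitted concentration of half-maximal effect; 0% = DMSO wells and 100% = buffer wells lacking importin beta; nearly all actives have a fitted effect of over 15% in size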
Target sequence (Q14974 whole entry, looked up): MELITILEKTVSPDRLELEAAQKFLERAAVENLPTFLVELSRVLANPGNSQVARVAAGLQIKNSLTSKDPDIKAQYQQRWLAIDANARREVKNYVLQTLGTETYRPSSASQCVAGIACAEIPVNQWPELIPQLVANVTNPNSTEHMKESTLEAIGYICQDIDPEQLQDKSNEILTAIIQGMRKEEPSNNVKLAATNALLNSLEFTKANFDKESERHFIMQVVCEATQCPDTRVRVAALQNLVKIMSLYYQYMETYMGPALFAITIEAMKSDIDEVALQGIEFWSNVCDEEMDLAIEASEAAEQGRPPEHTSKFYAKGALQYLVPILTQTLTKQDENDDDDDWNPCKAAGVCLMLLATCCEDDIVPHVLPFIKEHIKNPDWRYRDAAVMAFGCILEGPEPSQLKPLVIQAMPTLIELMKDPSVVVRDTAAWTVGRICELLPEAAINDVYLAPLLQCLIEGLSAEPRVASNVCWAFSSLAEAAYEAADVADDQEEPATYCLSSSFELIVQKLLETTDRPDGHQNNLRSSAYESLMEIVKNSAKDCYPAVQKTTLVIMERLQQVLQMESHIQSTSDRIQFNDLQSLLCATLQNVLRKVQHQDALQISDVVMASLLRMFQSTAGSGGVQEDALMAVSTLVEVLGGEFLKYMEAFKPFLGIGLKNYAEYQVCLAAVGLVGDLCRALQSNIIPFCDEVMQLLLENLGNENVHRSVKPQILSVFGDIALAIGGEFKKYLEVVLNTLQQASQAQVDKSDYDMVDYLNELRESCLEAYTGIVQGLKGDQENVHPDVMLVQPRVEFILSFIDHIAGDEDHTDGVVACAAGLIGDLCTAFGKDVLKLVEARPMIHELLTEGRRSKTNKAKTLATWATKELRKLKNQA
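Inhibition scored from the CFP 486 nm/YFP 530 nm FRET ratio 45 min after adding 0.125 microM importin beta to 50 nM Rango biosensor preincubated 5 min with compound (room temperature, PBS with DTT, Tween-20, BSA). No-importin wells as positive control.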
Rango release inh = inhibitors of RanGTP-induced Rango-importin beta complex dissociation; O95149+P62826; Biochemical FRET Rango-importin beta, RanGTP-induced dissociation; Potency, µM (top dose mostly 46.1 µM), for inactives: at the top dose activity change, negative = inhibition; actives 0.071% (n = 340,000); AID 540253; active means falling FRET ratio curve, often poorly fitted, with flat reads before Ran was added; inconclusive means other falling curves, or compound fluorescence or quenching; inactive means flat or rising ratio curve;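 note: potency is the fitted concentration of half-maximal effect; % of control where 0% means no effect; nearly all actives have a fitted effect of over 45% in size; -100% = wells without RanGTP and RCC1; the record marks most hits as doubtful in a second field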
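Compounds sat 5 min at room temperature with 0.1 uM Rango biosensor plus 0.25 uM importin beta, then FRET pre-read. RanGTP-RCC1 (0.6 uM Ran, 2mM GTP, 0.2 uM RCC1) added for 45 min, and the CFP/YFP post-read measured blocked complex dissociation.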
GLA inh pH 4.5 = alpha-galactosidase A (human) inhibition, pH 4.5; 230,000 tested, under 10 active; purified enzyme, 4-MU-alpha-Gal fluorescence, pH 4.5; activity change, negative = inhibition, % at 105 µM; inconclusive = small, poorly fitted or top-dose-only inhibition, or a rising curve; inactive = flat fitted curve, though single readings scatter; no compound was filed as active;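 note: 0% = full activity with enzyme and -100% = basal without enzyme; dose as in the result columns while the protocol names 77 µM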
miR-21 reporter = raises the signal of a miR-21 reporter | 340,000 tested, under 10 active | Potency, µM (series often up to 38.3 µM), inactives show at the highest dose reporter change, positive = more light | HeLa miR-21 FLuc reporter, luciferase, 48 h; active = well fitted rising curve with a large enough effect; inconclusive = small, poorly fitted or top-dose-only effect; inactive = no such curve, though single readings can be large or run the other way;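 note: % of control where 0% means no effect; miR-21 action dims this reporter so a rising signal means less miR-21 action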
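HeLa miR-21-FLuc reporter line, endogenous miR-21; 2000 cells/well in DMEM/10% FBS; compound titration up to ~40uM final, 48 h, 37 degree Celsius; luciferase detection reagent, 15 min lysis, CCD luminescence.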
An asterisk follows results filed as active; u = inconclusive; x = no result given. This is a subset (hit frequency here may not be typical).

SMILES	Rango complex inh	Rango release inh	GLA inh pH 4.5	miR-21 reporter
O=C(Nc1ccccn1)c1ccco1	1.3%	-8%	5	-38%
COc1ccc(NC(=O)C2CC(=O)N(c3ccccc3Cl)C2)c(OC)c1 (centres undefined)	-3.9%	-10%	x	11%
O=C(Cn1c(=O)cnc2ccccc21)Nc1cc(Cl)ccc1N1CCOCC1	0.6%	-8%	x	x
COC(=O)c1cc(S(=O)(=O)Nc2cccc(OC)c2)cn1C	-2.6%	0%	x	6%
NC(=O)c1ccc[n+](Cc2ccc(-c3ccccc3)cc2)c1	0.4%	0%	x	-4%
CN(C(=O)CCN1C(=O)S/C(=C\c2ccccc2)C1=O)C1CCS(=O)(=O)C1 (centres undefined)	-1.9%	2%	x	0%
CCn1c(SCC(=O)N2CCCc3ccccc32)nnc1-c1cccs1	-1.4%	-6%	-7	0%
C=CCOc1ccc(C2C(C(=O)c3ccc(C)o3)=C(O)C(=O)N2Cc2cccnc2)cc1 (centres undefined)	0.7%	-21%	x	7%
O=C(O)c1cccc(S(=O)(=O)Nc2ccc(O)cc2Sc2nc3ccccc3s2)c1	-5.0%	7%	-8	-4%
COc1ccc([C@@H]2[C@@H]3C(=O)N(C(C)(C)C)C(=O)[C@@H]3[C@]3(C)C(=O)N(c4ccccc4)C(=O)N23)cc1	0.1%	7%	x	-5%
C/C(=N\NC(=O)c1nnn(-c2nonc2N)c1CN1CCCCCC1)c1ccc(Br)cc1	-0.1%	-16%	x	-3%
Cc1ccc(N2CC(C(=O)Nc3cccnc3)CC2=O)cc1 (centres undefined)	6.0%	24%	0	-5%
Cc1ccc(NC(=O)CN(c2cc(C)cc(C)c2)S(=O)(=O)c2c(C)noc2C)nc1	0.7%	6%	-17	0%
O=C(Nc1ccc(S(=O)(=O)NCCc2ccccc2)cc1)c1ccncc1	-2.0%	-6%	x	-5%
CN(C)S(=O)(=O)c1cccc(NC(=O)c2cc(-c3cccs3)nc3ccccc23)c1	-4.3%	3%	-2	18%

Three entries from above, in markdown.
| mol | Rango complex inh | Rango release inh | GLA inh pH 4.5 | miR-21 reporter |
| --- | --- | --- | --- | --- |
| COC(=O)c1cc(S(=O)(=O)Nc2cccc(OC)c2)cn1C | -2.6% | 0% | x | 6% |
| C/C(=N\NC(=O)c1nnn(-c2nonc2N)c1CN1CCCCCC1)c1ccc(Br)cc1 | -0.1% | -16% | x | -3% |
| Cc1ccc(N2CC(C(=O)Nc3cccnc3)CC2=O)cc1 (centres undefined) | 6.0% | 24% | 0 | -5% |

Carrying on:
SMILES	Rango complex inh	Rango release inh	GLA inh pH 4.5	miR-21 reporter
CCCCCn1c(CCNC(=O)CCC)nc2ccccc21	-2.0%	0%	0	-5%
COc1ccc2c(c1)CCCC21NC(=O)N(CC(N)=O)C1=O (centres undefined)	4.1%	-6%	-1	-2%
CN1C(=O)CC(C(=O)O)SC1=Nc1cccc(C(F)(F)F)c1 (centres undefined)	1.3%	3%	x	-8%
Cn1nc(C(C)(C)C)c([N+](=O)[O-])c1C(=O)NC(C)(C)C	0.1%	1%	-3	-3%
c1ccc(-c2nc3ccccc3nc2N2CCOCC2)cc1	-0.9%	-8%	0	0%
O=C(c1ccco1)N1CCN(Cc2nc3ccccc3[nH]2)CC1	-1.4%	u	x	x
CCOc1ccc(N(C(=O)Nc2ccccc2)C2=NCCC2)cc1	0.0%	-4%	5	-17%
Cc1ccccc1C1CCCN(Cc2nc(CC3CC3)no2)C1 (centres undefined)	-4.0%	13%	7	-7%
Cc1ccc(NC(=O)CSC2=C(C#N)C(c3ccco3)C3=C(CC(C)(C)CC3=O)N2)cc1 (centres undefined)	0.0%	-24%	-19	14%
COc1ccc(S(=O)(=O)N2CCCC2)cc1Br	-0.5%	-9%	x	-10%
Cc1ccccc1NCC(=O)N/N=C/c1c(C)c(C(=O)c2ccc(Cl)cc2)n2ccccc12	5.4%	-7%	8	-1%
O=C(NNC(=O)c1ccccn1)c1ccc(OC(F)F)cc1	-2.1%	1%	x	x
CCCCCCCC(=O)NNC(=O)c1ccc([N+](=O)[O-])cc1	2.1%	6%	19	-2%
CCOc1cc(C(=O)N(C)c2ccccc2)cc(OCC)c1OCC	1.9%	-2%	-2	-3%
O=C(Cc1csc(-c2ccc(Cl)cc2)n1)Nc1cccc(S(=O)(=O)NC2=NCCC2)c1	-0.5%	14%	x	x

Ordered by the number under Rango complex inh (highest first): 3 from the list above
SMILES	Rango complex inh	Rango release inh	GLA inh pH 4.5	miR-21 reporter
CCCCCCCC(=O)NNC(=O)c1ccc([N+](=O)[O-])cc1	2.1%	6%	19	-2%
CN1C(=O)CC(C(=O)O)SC1=Nc1cccc(C(F)(F)F)c1 (centres undefined)	1.3%	3%	x	-8%
CCOc1ccc(N(C(=O)Nc2ccccc2)C2=NCCC2)cc1	0.0%	-4%	5	-17%

(further entries)
SMILES	Rango complex inh	Rango release inh	GLA inh pH 4.5	miR-21 reporter
CSc1ccccc1NC(=O)C1CCN(S(C)(=O)=O)CC1	-3.6%	4%	x	0%
CC(C)(C)c1ccc(C(=O)NCC(=O)N2CCC3(CC2)NCCc2[nH]cnc23)cc1	0.0%	-4%	x	-7%
O=C(O)c1cccc(Cn2c(Cl)c(/C=N/NC(=O)c3ccccc3O)sc2=O)c1	u	0%	-9	-9%
Cn1cc([N+](=O)[O-])c(C(=O)Nc2cnn(Cc3ccc(F)cc3)c2)n1	-3.2%	-7%	5	-3%
COc1cc(/C=C2\CC/C(=C\c3cc(OC)c(O)c(OC)c3)C2=O)cc(OC)c1O	u	u	-5	27%
O=C1[C@@H](Oc2ccccc2)[C@@H](c2ccncc2)N1c1ccccc1	1.8%	2%	x	x
CCOC1=NN(c2ccc(Cl)cc2)C(=O)/C1=C\N(C)C	-0.9%	14%	-2	-1%
CCOP(=O)(OCC)C(NC(=O)C(F)(F)F)c1ccccc1 (centres undefined)	2.2%	3%	4	1%
COc1cc(/C=C2/SC(=S)N(CC(=O)NC(C)(C)C)C2=O)cc(OC)c1OC	u	-9%	-9	0%
COc1ccc(CCc2cc(OC)cc(=O)o2)cc1	-3.0%	17%	-1	-19%
CN(C)c1nc(NC(C)(C)C)nc(NC(C)(C)C)n1	-2.3%	-4%	7	-2%
O=C(CN1CCN(CC(=O)Nc2ccccc2Cl)CC1)NCC1(N2CCOCC2)CCCCC1	-0.5%	-6%	x	x
CC[C@@H](C)C(C(=O)N1CCN(C(=O)OC(C)(C)C)CC1)n1cc(-c2cn([C@@H](C)C(=O)N3CCN(C(=O)OC(C)(C)C)CC3)nn2)nn1 (some centres undefined)	-3.6%	2%	7	-1%
CCn1ncc(CN2CCCC(C(=O)Nc3cccc(-c4cc5ccccc5[nH]4)c3)C2)c1C (centres undefined)	-0.4%	0%	x	14%
COc1ccc(S(=O)(=O)N2CCC3(CC2)OCCN3S(=O)(=O)c2c(C)cc(C)cc2C)cc1	0.3%	-2%	x	x
COC(=O)CNc1n[nH]c(=S)[nH]c1=O	4.9%	4%	-3	-1%
NC(=O)COC(=O)c1cccnc1Nc1ccccc1F	-4.5%	1%	9	-17%
COc1ccc(F)c(CN(C)CC2CCCN(CCc3ccc(F)cc3)C2)c1 (centres undefined)	-1.9%	21%	x	-4%
C=C1CCN([C@@H](Cc2ccccc2)C(=O)O)S(=O)(=O)c2ccccc21	4.2%	21%	x	x
COC(/C=C/Nc1ccc(C)cc1)=C(C#N)C#N	0.1%	2%	0	0%
CCn1ncc(/C=N\NC(=O)c2cc(-c3ccc(C)cc3C)nc3ccccc23)c1C	u	u	-29	1%
CCN(C(=O)CSc1nnnn1-c1ccccc1)c1c(N)n(Cc2ccccc2)c(=O)[nH]c1=O	2.7%	-1%	5	0%
O=C1CN(C(=O)COC(=O)CNC(=O)c2ccc(Br)o2)c2ccccc2N1	-0.4%	6%	-5	0%
COc1ccc(-c2c(-c3ccc(OCC(=O)NN)cc3O)n[nH]c2C)cc1OC	0.1%	-12%	x	9%
O=S(=O)(Nc1nccs1)c1ccc(Nc2nnc(-c3ccccc3)c3ccccc23)cc1	-4.2%	-10%	4	-4%
COc1ccccc1CNC(=O)C(C)Sc1ccsc1[N+](=O)[O-] (centres undefined)	-2.4%	-15%	-11	7%
COc1cccc(CNC(=O)C2CCN(S(=O)(=O)N3CCCC3)CC2)c1	-0.7%	16%	-1	0%
COc1ccc(CC(NC(C)=O)C(=O)NC2CCN(c3nnnn3-c3ccccc3)CC2)cc1OC (centres undefined)	x	x	-21	0%
O=C1C[C@H]2[C@H](CO)[C@@H](OC(=O)c3ccc(-c4ccccc4)cc3)C[C@H]2O1	-0.6%	-16%	0	-61%
CN(C)S(=O)(=O)c1ccc(C(=O)NNc2nc(-c3ccccc3)c3cc(Br)ccc3n2)cc1	4.3%	14%	-29	12%
Cc1cc(NC(=O)CSc2ncc(C(=O)O)n2-c2ccc(F)cc2)no1	0.5%	2%	x	x
C=CCn1c(SCC(=O)Nc2c(C)n(C)n(-c3ccccc3)c2=O)nc2scc(-c3ccccc3)c2c1=O	-2.5%	-12%	-3	17%
CCc1ccc(-c2nc(CN3CCC(C(=O)NCc4ccc(F)cc4)CC3)c(C)o2)cc1	0.1%	11%	-3	-1%
O=C(NNC(=O)c1ccc(Cl)cc1Cl)c1ccc2ccccc2c1	1.6%	1%	x	x
Cc1ccsc1C(=O)OCC(=O)Nc1c(Cl)cccc1C(F)(F)F	0.0%	-17%	6	-18%
COc1ccc(C2CC(c3ccc(OC)cc3OC(C)=O)=NN2C(=O)c2ccccc2)cc1 (centres undefined)	1.2%	3%	x	-1%
CC(C)Cn1c(N)c(C(=O)NCC2CCCO2)c2nc3ccccc3nc21 (centres undefined)	u	u	u	23%
CC(C)C[C@H](NC(=O)c1nc[nH]c1C(=O)NCCCCCNC(=O)OC(C)(C)C)C(=O)OCc1ccccc1	-2.0%	14%	-14	7%
O=C(Nc1cccc(-c2cccc(Cl)c2)c1)C1CCN(Cc2ccon2)CC1	4.1%	6%	x	21%
COc1ccc(C(=O)c2sc(Nc3ccccc3F)nc2N)cc1	-2.9%	3%	x	-57%
C=CCN1C(=O)c2ccc(C(=O)OCC(=O)Nc3ccc(S(N)(=O)=O)cc3)cc2C1=O	-3.4%	39%	x	x
COc1ccc(CCNC(=O)c2cc3c(=O)n4ccccc4nc3n(CC3CCCO3)c2=N)cc1 (centres undefined)	u	u	x	x
COc1ccc(CN2CCN(C(=O)c3cc(-c4cccnc4)nc4ccc(Cl)cc34)CC2)c(OC)c1OC	5.9%	-10%	-1	12%
O/N=C(/Cc1ccccn1)c1ccccc1	0.6%	-8%	4	-6%
CC(C)C1CC(CCNCc2ccc3c(c2)OCO3)(c2ccccc2)CCO1 (centres undefined)	-2.4%	11%	-1	5%
CC(C)Sc1cc(N2CCCC2)nc(-c2ccccc2Cl)n1	-3.2%	3%	-5	0%
CC(=O)c1cccc(NC(=O)C(=O)Nc2cccc3ccccc23)c1	-1.1%	-8%	8	-36%
CCOC(=O)C(CC(C)C)CP(=O)(O)CNC(=O)OCc1ccccc1 (centres undefined)	-1.0%	13%	-5	-3%
Cc1ccc(-c2nsc(SCC(=O)NCC3CCCO3)n2)cc1 (centres undefined)	1.5%	-14%	2	4%
N#C/C(=C\Nc1ccccc1O)c1nc2ccccc2o1	u	-13%	-5	13%
CCOC(=O)c1ccc(S(=O)(=O)N2CC(=O)Nc3ccccc32)cc1	u	-26%	x	5%
CCOC(=O)/C(C#N)=C/c1cn(CCC(=O)O)nc1-c1ccc(OC)cc1	0.2%	-10%	-3	-2%
COc1ccc(CCNCC(O)COc2ccc(OC)cc2C(C)(C)C)cc1 (centres undefined)	-0.4%	19%	x	0%
COc1ccc(-c2n[nH]c(C)c2-c2cscn2)c(O)c1	3.5%	2%	4	-9%
Fc1ccc(-n2[nH]nnc2=S)cc1N1CCCC1	-1.7%	-4%	-1	-18%
CCn1nc(C(=O)Nc2ccccc2N2CCCC2)c2ccccc2c1=O	0.1%	-9%	x	x

Only GLA inh pH 4.5, for three of the compounds above:
| canonical_smiles | GLA inh pH 4.5 |
| --- | --- |
| Cc1ccc(N2CC(C(=O)Nc3cccnc3)CC2=O)cc1 (centres undefined) | 0 |
| COc1cccc(CNC(=O)C2CCN(S(=O)(=O)N3CCCC3)CC2)c1 | -1 |
| Cc1ccsc1C(=O)OCC(=O)Nc1c(Cl)cccc1C(F)(F)F | 6 |
